High-throughput results (PubChem BioAssay)
VDR inhibitor – inhibitors of human vitamin D receptor; hit rate 0.93% among 400,000; VDR-SRC2-3 peptide fluorescence polarization, 2 h; Potency, µM, inactives show max response, negative = inhibition, usual class: inhibitors; P11473; active = well fitted inhibition curve with a large enough effect; inconclusive = small, poorly fitted or top-dose-only effect, or another doubt; inactive = no such curve, though single readings can be large or run the other way; note: series mostly up to about 120 µM
Target sequence (P11473 whole entry, looked up): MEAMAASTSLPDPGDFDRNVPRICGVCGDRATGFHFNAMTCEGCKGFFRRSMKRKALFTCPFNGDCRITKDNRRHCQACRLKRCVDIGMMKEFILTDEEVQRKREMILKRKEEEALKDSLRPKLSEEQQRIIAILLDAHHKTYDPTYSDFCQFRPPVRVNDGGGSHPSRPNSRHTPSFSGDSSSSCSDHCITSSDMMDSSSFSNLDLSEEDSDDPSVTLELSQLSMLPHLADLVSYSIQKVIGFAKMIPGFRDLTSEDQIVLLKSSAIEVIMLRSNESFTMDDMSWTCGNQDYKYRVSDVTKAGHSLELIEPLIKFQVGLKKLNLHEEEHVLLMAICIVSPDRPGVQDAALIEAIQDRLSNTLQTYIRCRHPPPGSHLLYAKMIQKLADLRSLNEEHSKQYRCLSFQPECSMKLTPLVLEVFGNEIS
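The screen uses fluorescence polarization to detect compounds that interfere with recruitment of the SRC2-3 coactivator peptide to VDR; plates are read after 2 h at room temperature.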
Active calls of the source: *; ? = inconclusive; & = joins results of further samples; [ ] = remark or other dose. % is set by controls: 0 for no effect and ±100 for the full control effect; potency is the fitted concentration of half-maximal effect. The list is partial; rates above refer to the full screens.

SMILES	VDR inhibitor
O=C(Cc1ccccc1)NCC(=O)N/N=C/c1ccc(Cl)cc1	15%
O=C(c1ccc(S(=O)(=O)N2CCOCC2)cc1)N1CCN(C2=NS(=O)(=O)c3ccccc32)CC1	-5%
O=C(COC(=O)C1CC(=O)N(c2ccc3c(c2)OCCO3)C1)Nc1ccc2c(c1)CCC2 (stereo not drawn)	29%
CCOC(=O)C(/C(C)=N/NC(=O)c1ccccc1[N+](=O)[O-])C(C)C (stereo not drawn)	18%
COc1ccc(NC(=O)c2ccc3ncsc3c2)c2ccccc12	-1%
COCCCC1CCN(C(=O)C2CCC(=O)N(CC3CCCCC3)C2)CC1 (stereo not drawn)	2%
COc1ccc2c(c1)cc1c(=O)n(CC(=O)NC(C)C)nc(C)n12	-1%
CCN(CC(=O)Nc1ccc2c(c1)OCCO2)Cc1nc2cc(Cl)ccc2c(=O)[nH]1	5%
CN1CCN(CC(=O)Nc2c(C(=O)c3ccccc3)oc3ccccc23)CC1	-7%
CCCn1c(-c2cccc([N+](=O)[O-])c2)nc2c1c(=O)[nH]c(=O)n2Cc1ccccc1	-7%
COc1ccc(NC(=O)CN(c2ccc(C)cc2)S(=O)(=O)c2c(C)nn(C)c2C)cc1	4%
O=C(OCCNC(=O)c1ccc2ccccc2n1)c1cccnc1	-2%
Cn1c(=O)c(Nc2ccc(Cl)cc2)c2c3c(cccc31)C(=O)c1ccccc1-2	5%
Cc1ccccc1N(CC(=O)N/N=C/c1ccc(Cl)cc1)C(=O)c1ccccc1	-4%
Cc1cccc(C)c1NC(=O)COC(=O)c1ccccc1Nc1ccccc1	-12%
CCCCCOC(=O)Cn1c(SCC(=O)Nc2ccccc2)nc2c1c(=O)[nH]c(=O)n2C	-13%
CC(C)C[C@@H](CC(=O)N[C@H](CC(=O)N[C@@H]1CCCC[C@H]1C(=O)N[C@H](CC(=O)N[C@@H](CCC(=O)O)CC(=O)O)Cc1c[nH]c2ccccc12)C(C)C)NC(=O)[C@@H]1CCCC[C@H]1N	0%
Cc1nnc(NC(=O)c2ccc3ccccc3n2)s1	-6%
CCOc1ccc(OCCCCOc2ccccc2C(C)=O)cc1	10%
O=C(Nc1nc(=O)c2ccccc2s1)c1ccc(Cl)cc1	-15%

Next part, overlapping the part above by four compounds.
SMILES	VDR inhibitor
CC(C)C[C@@H](CC(=O)N[C@H](CC(=O)N[C@@H]1CCCC[C@H]1C(=O)N[C@H](CC(=O)N[C@@H](CCC(=O)O)CC(=O)O)Cc1c[nH]c2ccccc12)C(C)C)NC(=O)[C@@H]1CCCC[C@H]1N	0%
Cc1nnc(NC(=O)c2ccc3ccccc3n2)s1	-6%
CCOc1ccc(OCCCCOc2ccccc2C(C)=O)cc1	10%
O=C(Nc1nc(=O)c2ccccc2s1)c1ccc(Cl)cc1	-15%
CCOc1ccc2c(=O)c(-c3ccc4c(c3)OCCCO4)c(C)oc2c1	-17%
O=C(Cn1c(=O)c2ccccc2n(CC(=O)Nc2ccc(F)cc2F)c1=O)NCCc1ccccc1	-26%
CCCCc1c(O)nc2ccccn2c1=O	16%
CCCn1c(=O)n(C)c(=O)c2c(SCC(=O)NCc3ccco3)nc(C3CC3)nc21	2%
COc1cc(N/C=C2\CC(=O)NC(C)=C2C#N)cc(OC)c1OC	-15%
COc1cccc(CNC(=O)C(=O)NCCC2CCCCN2S(=O)(=O)c2ccc(C)cc2)c1 (stereo not drawn)	-8%
COc1ccc(C)cc1NC(=O)CSc1nnc(CC(=O)Nc2ccccc2F)n1C	-20%
Cc1ccccc1-c1cc(N2CCN(C)CC2)ncn1	6%
COc1cccc(NC(=S)N2CCC(NC(=O)C3CCCCC3)CC2)c1	8%
COc1cccc(-c2cc(C(=O)NCc3ccccc3)[nH]n2)c1	7%
O=C(Nc1cc(SCCO)cc([N+](=O)[O-])c1)c1ccc(Br)o1	-27%
COC(=O)c1cccc2c1-c1ccccc1/C2=N\NC(N)=O	-13%
Cc1cccc(-n2c(SCC(=O)N(C)C3CCS(=O)(=O)C3)nc3ccccc3c2=O)c1C (stereo not drawn)	-25%
Cc1ccc(S(=O)(=O)c2c(Nc3ccc(C)c(C)c3)sc(C(=O)c3ccc4c(c3)OCO4)c2N)cc1	4%
COc1ccc(NC(=O)C2CCCN(S(=O)(=O)c3ccc4c(c3)CCCC(=O)N4)C2)cc1OC (stereo not drawn)	1%
Cc1csc(NC(=O)c2ccc(S(C)(=O)=O)cc2)n1	-17%
CCOc1ccccc1N(CC(=O)N1CCOCC1)S(=O)(=O)c1ccccc1	?
CCOC(=O)CSc1nnc(CNC(=O)c2ccco2)n1-c1ccc(F)cc1	-1%
CC(C)C(=O)Nc1ccc(C(=O)Nc2ccc(S(=O)(=O)N3CCOCC3)cc2)cc1	-10%
COc1cccc(CC(NC(C)=O)C(=O)NC2CCN(c3nnnn3-c3ccccc3)CC2)c1OC (stereo not drawn)	-28%

Arranged by the number under VDR inhibitor (ascending): three of the compounds above
SMILES	VDR inhibitor
CCOc1ccc2c(=O)c(-c3ccc4c(c3)OCCCO4)c(C)oc2c1	-17%
COC(=O)c1cccc2c1-c1ccccc1/C2=N\NC(N)=O	-13%
COc1ccc(NC(=O)C2CCCN(S(=O)(=O)c3ccc4c(c3)CCCC(=O)N4)C2)cc1OC (stereo not drawn)	1%

Next part:
SMILES	VDR inhibitor
CCc1cccc(C)c1NC(=S)N(CCN(C)C)Cc1cccs1	-7%
Cc1ccccc1-c1nc2scc(CCNC(=O)C(=O)Nc3ccc(F)cc3F)n2n1	3%
Cc1ccc(-c2noc(CNC(=O)c3ccc(C(C)(C)C)cc3)n2)cc1	14%
CCN(CC)S(=O)(=O)c1ccc2c(c1)c(=O)c(C(=O)NCc1ccccc1Cl)cn2C	-17%
Cc1ncc([N+](=O)[O-])n1CC(O)CCl (stereo not drawn)	9%
Cc1ccccc1C(=O)Nc1scc(-c2ccc(Br)cc2)c1C(=O)O	-1%
COc1cccc(CNC(=O)CN(c2cc(C)cc(C)c2)S(=O)(=O)c2c(C)noc2C)c1	2%
CCCOc1ccc(CC(=O)NCC2(c3ccccc3)CCOCC2)cc1OC	-12%
COc1cc(/C=N\NC(=O)c2ccc(-c3ccccc3)cc2)cc(OC)c1O	18%
Cc1ccc(S(=O)(=O)N2CCN(C(=O)C3CC(=O)N(c4ccc5c(c4)OCCO5)C3)CC2)cc1 (stereo not drawn)	7%
CC(C)CC(C(=O)Nc1cccc(O)c1)N1C(=O)c2ccccc2C1=O (stereo not drawn)	-5%
CC(C)(C)c1ccccc1OCCCCCNCCO	-9%
Cc1nnc(N2CCC(C(=O)N3CCCCC3)CC2)c2nn(-c3ccc(Cl)cc3)c(C)c12	-5%&3%
COC(=O)c1ccccc1NC(=O)CN1C(=O)c2ccccc2S1(=O)=O	-7%
CN(c1ccccc1)S(=O)(=O)c1cccc(NC(=O)Cn2cnc3c2c(=O)n(C)c(=O)n3C)c1	0%
CCCOC1CCCN(C(=O)c2cc(Cl)c(Cl)cc2C(=O)O)C1 (stereo not drawn)	8%
COc1ccccc1OCCNC(=O)c1ccc(C)o1	6%
CCOc1ccc(N=c2scc(-c3ccccc3)n2CCO)cc1	0%
Cc1ccc(C(=O)NCC(=O)Nc2ccc(F)c(F)c2F)cc1	42%[activator]
CCOc1ccc(N2CC(C(=O)Nc3ccccc3OC)CC2=O)cc1 (stereo not drawn)	-10%
Cc1ccc(S(=O)(=O)N2CCN(C(=O)COC(=O)c3ccc(O)cc3)CC2)c(C)c1	-5%
CC(C)N=C(NC#N)SCc1ccc(F)cc1	5%
CCCn1c(SCC(=O)Nc2ccccc2C(=O)NC2CC2)n[nH]c1=O	9%
CC1CCCC(NC(=O)CSC2CCCCC2)C1C (stereo not drawn)	-8%
O=C(Nc1ccccc1F)c1ccc(OCc2ccccc2)cc1	-8%
COc1ccc(C(=O)NC2CCc3ccccc32)cc1OC1CCN(C(C)C)CC1 (stereo not drawn)	-12%
COc1cc(CN2CCNC(=O)C2CC(=O)NCCC2=CCCCC2)cc(OC)c1 (stereo not drawn)	6%
CCCCNC(=O)CSc1nc2cc3c(cc2c(=O)n1CCCCCC(=O)NCc1ccc2c(c1)OCO2)OCO3	1%
CCOc1ccc(NC(=O)N2CC=C(c3c[nH]c4ccccc34)CC2)cc1	13%
CC1CCCC(NC(=O)CSc2ccc(F)cc2)C1C (stereo not drawn)	6%
N[C@@H]1CCN(O)C1=O	4%&-13%
CCOc1cccc2cc(C(=O)NCCC3=CCCCC3)c(=O)oc12	1%
COC(=O)c1ccc(NC(=O)COC(=O)CSc2nc(C)cc(C)n2)cc1	0%
Cc1cc(C)cc(NC(=O)C(OC(=O)Cn2cnc3c2c(=O)n(C)c(=O)n3C)c2ccccc2)c1 (stereo not drawn)	-7%
Cc1sc2ncnc(SCC(=O)NCC(C)C)c2c1C	14%
CCN(CC)CCNC(=S)Nc1ccc(Cl)cc1	-4%
O=C(COc1ccc2ccccc2c1)Nc1ccc(Cc2ccncc2)cc1	-5%
CCOc1ccc(S(=O)(=O)N(CC(=O)Nc2cccnc2)c2ccc(F)cc2)cc1	-1%
Fc1ccc(CNC(=S)NC2CCCC2)cc1	11%
CCOC(=O)CC(C)(C)/C(C)=N/Nc1ccc([N+](=O)[O-])cc1[N+](=O)[O-]	11%
O=C(Nc1ccc(N2CCOCC2)cc1)c1ccncc1	12%
CC1=NNC(=O)C(CC(=O)Nc2ccc(Cl)c(Cl)c2)C1 (stereo not drawn)	9%
COc1ccc(NS(=O)(=O)c2cc(NS(=O)(=O)c3cc(C(=O)O)ccc3OC)ccc2C)cc1	-5%
Cc1cccc2cc(CN(Cc3ccco3)C(=O)c3ccncc3)c(=O)[nH]c12	-9%
COC(=O)[C@H]1[C@H]2C[C@@H]3c4[nH]c5ccccc5c4CCN3C[C@H]2C[C@@H](OC(=O)c2cc(OC)c(OC)c(OC)c2)[C@@H]1OC	35µM*
COc1ccccc1C1=Nc2cccc3cccc(c23)N1	-8%
Cc1ccc(C)c(N2CCN(C(=O)C3CCC(CNS(=O)(=O)c4ccc(Br)s4)CC3)CC2)c1 (stereo not drawn)	-23%
Cc1cc(OCn2ccc(C(=O)O)n2)ccc1Cl	-15%
O=C(Cc1cccc2ccccc12)NN1C(=O)C2C(C1=O)C1C=CC2C12CC2 (stereo not drawn)	-7%
CCc1cc(OCCN(C)C)ccc1Cl	4%
O=C1c2ccccc2NC(c2ccc(-c3ccc(C(F)(F)F)cc3)o2)N1O (stereo not drawn)	-21%
Cc1coc2cc3oc(=O)c(CC(=O)N4C[C@H]5C[C@@H](C4)c4cccc(=O)n4C5)c(C)c3cc12	-11%
COc1ccc(CC(=O)NCCCCc2ccccc2)cc1OC	-15%
CCOC(=O)Cn1nc(-c2ccccc2)nc1-c1ccccc1	2%
O=C(c1cccs1)N1CCOCC1	16%
CCOc1ccc(CNC(=O)Cn2nc(C)c3c(C)n(-c4ccc(C)cc4)nc3c2=O)cc1	-19%&-5%
Cc1noc(C)c1C(=O)Nc1sc2c(c1C(N)=O)CCCCC2	-3%
COc1ccc(S(=O)(=O)NNC(=O)Nc2ccc(C)cc2C)c(OC)c1	8%
Cc1ccsc1C(=O)N(CC(C)C)c1c(N)n(Cc2ccccc2)c(=O)[nH]c1=O	-5%
C/C(=N\NC(=O)CCc1ccc(S(=O)(=O)N2CCOCC2)cc1)c1ccc(OC(F)F)cc1	-2%
Following part:
SMILES	VDR inhibitor
COc1ccccc1CCNC(=O)C1CCN(C(=O)/C=C/c2ccccc2)CC1	-17%
CCOC(=O)c1noc2ncnc(N(CCC(=O)OC)c3ccccc3)c12	-3%
Cc1ccc2nc(NC(=O)/C=C/c3ccc4c(c3)OCO4)sc2c1	-6%
O=C(c1ccc(OC2CCN(CCO)CC2)cc1)N1CCCC1	-11%
COCCN(C(=S)Nc1cc(C)ccc1C)C(C)c1cccnc1 (stereo not drawn)	-29%
COc1ccccc1NC(=O)Cn1c2ccc(F)cc2c2nc3n(c(=O)c21)CCS3	-24%
Cc1ccc(CNC(=O)CCCCCn2c(=O)c3sccc3n(CC(=O)C(C)(C)C)c2=O)cc1	-7%
CC(C)NC(=O)CSc1nc(N)c(NC(=O)c2ccco2)c(=O)[nH]1	-18%
CC1(C)CC(N2CCN(C(c3ccccc3)c3ccccc3)CC2)=CC(=[N+]2CCCCC2)C1	-10%
CCN(CC)c1cc(C)c2cc(NC(=O)c3ccc(F)cc3Cl)ccc2n1	-1%
COc1ccc(C(=O)NCCc2sc(-c3cccc(F)c3)nc2C)cc1	1%
CCCCCn1c(SCC(=O)OCC)nc2cc(C(=O)NCc3ccco3)ccc2c1=O	-14%
COc1cc(/C=N/Nc2snc(SC)c2C#N)cc(OC)c1OC	5%
O=C(Nc1ccc(S(=O)(=O)N2CCCCC2c2cccnc2)cc1)c1ccc(Br)cc1 (stereo not drawn)	8%
Oc1ccccc1Oc1c(F)c(F)nc(N2CCCC2)c1F	0%
COc1ccc(S(=O)(=O)NCC(=O)NCc2cc(=O)n(C)c(=O)n2C)cc1C	6%
CCOc1ccc(S(=O)(=O)Nc2nc3ccccc3nc2Nc2ccc(N3CCOCC3)cc2)cc1	-19%
Cc1cc(=O)oc2cc(OCC(=O)NCCN3CCOCC3)c(Cl)cc12	-2%
Cc1cccc(N2CCN(C3=NC(=O)C(=C4CCCCC4)S3)CC2)c1	6%
CCc1n[nH]c(=S)n1/N=C/c1c(O)ccc2ccccc12	-1%
Cc1ccc(CN(CCO)CCO)cc1	6%
Cc1ccc2nc(Cl)c(/C=N/Nc3nc(C)cc(C)n3)c(=O)n2c1	11%
CC(NC(=O)C(=O)N/N=C\c1ccc([N+](=O)[O-])cc1)c1ccccc1 (stereo not drawn)	3%

Ordered by molecular weight (descending): part of the list above
SMILES	VDR inhibitor
Cn1c(=O)c(Nc2ccc(Cl)cc2)c2c3c(cccc31)C(=O)c1ccccc1-2	5%
Cc1cc(OCn2ccc(C(=O)O)n2)ccc1Cl	-15%
CC(C)N=C(NC#N)SCc1ccc(F)cc1	5%
